Screening data from PubChem.
Bfl-1 A1 inh: caspase 3/7 activation in MEF A1-2A-BIM cells, primary screen, A1 inhibitor project, cell-based, luminescence, HTS | actives 0.066% (n = 330,000) | Caspase-Glo 3/7 luminescence, 3 h; percent of clofoctol response, vehicle zero | caspase activation, % (no concentration beside the values) | AID 2462, 2010;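 active = over half of replicate activation scores above 10%, or exactly half above 10 with the replicate mean above 10; inconclusive = replicate mean below 10 yet half the replicates above 10; inactive = over half of replicates below 10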;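 note: wells of about 30 µL received 50 nL stock; many hits fall short of the cut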
HNF4A DNA FP: change in binding of human HNF4A to DNA, primary screen, biochemical, fluorescence polarization, FITC-DNA; Hepatocyte nuclear factor 4-alpha (Homo sapiens), P41235; 1 h; activity change, % at 10 µM; actives 0.3% (n = 360,000); AID 1224865, 2016; in the data active = activity change above about 30%, passing the limit was not always enough;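 note: controls were the assay level and a saturating level of protein; the project sought stronger binding though the title names inhibitors; some compounds called inactive have numbers as strong as hits; positive values seem to mean higher polarization but the record does not say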
Vif A3G: inhibitors of Vif binding to APOBEC3G peptide, primary screen, biochemical, TR-FRET, GST-Vif 1-94, biotin-A3G peptide, dose response retest (AID 1117319); Virion infectivity factor (Human immunodeficiency virus type 1 group M subtype B (isolate …; TR-FRET GST-Vif / biotin-A3G peptide binding; higher % means a stronger effect; test concentration not given here; strong numbers were not always called active; one-dose inhibition, %; IC50 in µM for titrated hits; actives 0.57% (n = 260,000);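 active = above the screen mean plus three standard deviations and confirmed in dose response; inconclusive = results disagree or hit not tested in dose response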;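 note: Vif residues 1-94 fused to GST binding biotinylated APOBEC3G peptide 110-148; 0% = full assay without inhibitor and 100% = GST in place of GST-Vif; retest series ran down from 100 µM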
LANA-H2B inh: blockers of LANA interaction with H2A/H2B – biochemical, FP readout, HTS, primary screen. Protein LANA1 (Human herpesvirus 8 type P (isolate GK18)), Q9QR71. cell-free LANA-H2A/H2B peptide, fluorescence polarization. inhibition, % (concentration not given with the values). actives 0.6% (n = 320,000). AID 2629, 2010; in the data active = inhibition mostly above about 10%, no sharp cut-off; inactive = mostly below about 6.7%;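 note: stock transfer was 7.5 nL into about 10 µL; 0% = median of vehicle wells and 100% = median of positive control wells; one replicate is shown; the record names a cut of 25% in any replicate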
B2AR ag: beta2AR agonists driving receptor internalization, primary screen, cell-based, FAP fluorogen, flow cytometry; Beta-2 adrenergic receptor (Homo sapiens), P07550; Am2.2-beta2AR cells; reference of the scale not given here; response, % (test concentration not listed); actives 0.43% (n = 340,000);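 active = response above a set limit, near 3 SD of response in nonfluorescent compounds, cut at about 42% in these data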;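 note: stock transfer was 100 nL into about 11 µL; a reference agonist was the positive control; negative values mostly stem from fluorescent compounds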
Target sequence (P07550 whole entry, looked up): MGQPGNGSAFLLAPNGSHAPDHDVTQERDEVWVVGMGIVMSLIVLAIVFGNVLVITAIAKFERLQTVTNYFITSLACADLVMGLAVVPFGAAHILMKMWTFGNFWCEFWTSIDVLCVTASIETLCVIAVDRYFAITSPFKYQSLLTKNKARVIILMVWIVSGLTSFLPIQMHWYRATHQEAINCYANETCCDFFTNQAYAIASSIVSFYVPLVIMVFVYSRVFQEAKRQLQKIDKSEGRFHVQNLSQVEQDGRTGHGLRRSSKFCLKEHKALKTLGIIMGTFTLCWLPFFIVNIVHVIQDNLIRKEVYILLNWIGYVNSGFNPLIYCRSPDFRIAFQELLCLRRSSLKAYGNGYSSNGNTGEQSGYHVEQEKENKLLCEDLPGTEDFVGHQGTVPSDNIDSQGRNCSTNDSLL
UCH37 inh: inhibitors of human UCH37 deubiquitinase, primary screen, biochemical, Ub-AMC cleavage, fluorescence; Ubiquitin carboxyl-terminal hydrolase isozyme L5 (Homo sapiens), Q9Y5K5; purified proteasome/UCH37; inhibition, % (concentration not given with the values); actives 0.33% (n = 330,000);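 active = mean of two replicates above 20%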;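 note: 0% = compound-free wells with enzyme and 100% = wells lacking proteasome; stock transfer was 100 nL into about 20 µL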
Target sequence (Q9Y5K5 whole entry, looked up): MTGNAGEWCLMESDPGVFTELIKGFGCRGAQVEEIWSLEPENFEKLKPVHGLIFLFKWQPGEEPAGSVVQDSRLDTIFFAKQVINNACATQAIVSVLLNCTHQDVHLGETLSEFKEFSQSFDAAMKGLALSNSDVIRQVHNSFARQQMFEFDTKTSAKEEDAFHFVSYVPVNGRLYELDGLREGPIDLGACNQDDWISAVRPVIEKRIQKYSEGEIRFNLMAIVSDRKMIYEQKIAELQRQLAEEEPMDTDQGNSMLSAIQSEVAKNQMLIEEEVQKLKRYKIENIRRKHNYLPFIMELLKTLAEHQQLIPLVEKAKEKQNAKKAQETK
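Material: Human UCH37 enzyme supplied as purified proteasome complex | Schedule: 30 min compound-proteasome preincubation then 25 min substrate reaction, room temperature | Detection: AMC fluorescence from Ub-AMC cleavage, excitation 355 nm, emission 460 nm | Benchmarks: Wells without proteasome as full block, compound-free enzyme plus substrate as uninhibited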
E coli growth: E. coli growth inhibition, primary screen, OD600; Escherichia coli growth, 23 h; active compounds read low; actives 0.21% (n = 330,000); OD600 absorbance (test concentration not listed);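 active = OD600 absorbance below the run mean of sample wells minus 3.6 SD, in any replicate, cut at about 0.56 in these data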;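 note: stock transfer was 300 nL into about 60 µL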
* hit, by the source's call; ? = inconclusive; · = no result given; & = joins results of further samples. Not a hit list; any-hit rate near 2.1%.

SMILES | Bfl-1 A1 inh | HNF4A DNA FP | Vif A3G | LANA-H2B inh | B2AR ag | UCH37 inh | E coli growth
CN(C)CCCNC(=O)CC(c1ccccc1)c1ccccc1O (stereo not given) | -0.4 | -2.1 | -4% | 1.8 | 9 | 4.8 | 0.68
CCCN(CCO)Cc1ccc(F)c(Br)c1 | 0.4 | 0.1 | 3% | -0.6 | -2 | -1.6 | 0.68
CCOC(=O)c1cnc2cc(F)c(F)cc2c1N1CCN(C)CC1 | 1.0 | 2.1 | · | 2.1 | 6 | · | ·
COC(=O)c1ccc(/C=C/C(=O)OCC(=O)NCc2cccs2)cc1 | -0.3 | 2.3 | 7% | 7.2 | -3 | 1.6 | 0.64
c1ccc(-c2onc(-c3ccco3)c2-c2ccc3c(c2)OCO3)cc1 | 0.6 | 4.5 | · | -1.3 | 8 | 3.9 | 0.66
N#CCSc1nnc(COc2ccccc2)n1-c1ccccc1 | -0.3 | -2.2 | 1% | 4.5 | 12 | 0.7 | 0.67
CCc1ccc(N2CC(C(=O)Nc3ccc(S(=O)(=O)N4CCCCC4)cc3)CC2=O)cc1 (stereo not given) | -0.6 | -0.7 | · | 0.8 | 7 | 2.0 | 0.67
O=C(Cc1nnc(NC(=O)c2ccccc2)s1)N/N=C/c1ccc(O)cc1 | -0.3 | 1.1 | · | 3.3 | -8 | · | ·
COc1ccc(OC)c(-n2c(SCC(=O)Nc3cccc(S(N)(=O)=O)c3)nc3ccccc3c2=O)c1 | 0.7 | 2.9 | 0% | 0.2 | 0 | 1.1 | 0.67
COc1ccc(NS(=O)(=O)c2ccc(C)cc2)c([N+](=O)[O-])c1 | 0.6 | -1.0 | · | -1.5 | 5 | 2.0 | 0.72
CN(C(=O)C1CCCO1)c1nnc(-c2ccccn2)s1 (stereo not given) | 0.7 | 5.0 | -3% | 0.5 | -6 | -51 | 0.75
COc1cc(NC(=O)c2ccc3c(c2)OCO3)ccc1NC(=O)C(C)C | -0.7 | 3.4 | 20% | -2.5 | 2 | 1.1 | 0.7
COc1ccc(NC(=O)CN(c2ccc(OC)c(Cl)c2)S(=O)(=O)c2ccccc2)c(OC)c1 | 1.1 | 0.2 | · | -2.0 | 13 | 6.7 | 0.7
O=C(COC(=O)[C@@H]1CC(O)CN1S(=O)(=O)c1ccc2c(c1)OCCO2)Nc1ccccc1F (stereo not given in full) | -0.5 | -2.1 | 20% | 7.4 | -4 | 4.8 | 0.72
O=C(Nc1ccc(Br)cc1Cl)Nn1cnnc1 | -0.3 | 6.5 | -4% | -3.6 | 4 | 4.2 | 0.66
O=C(OCc1ccc(Cl)c(Cl)c1)c1ccc[nH]1 | -0.2 | 0.9 | · | -1.0 | -4 | 5.0 | 0.63
CSc1ccc(C=O)cc1 | -0.1 | 3.4 | · | -11 | 0 | 5.0 | 0.67
CC(C)C(=O)N1CCN(c2ccc(NC(=O)c3ccc([N+](=O)[O-])o3)cc2Cl)CC1 | · | 0.9 | · | · | 38 | 7.9 | 0.71
Cc1ccc2cccc(Oc3ncnc4sc(C)c(C)c34)c2n1 | 1.0 | -0.3 | · | -2.1 | -10 | 1.0 | 0.68
CCOc1ccc(S(=O)(=O)N2CCN=C2c2ccccc2)cc1 | 0.0 | 0.3 | 10% | 1.6 | -4 | -2.3 | 0.71
O=C(NCc1ccco1)[C@@H]1CCCN1C(=O)c1cccs1 | 1.2 | 1.2 | 3% | -8.8 | 2 | 1.4 | 0.67
COc1cccc(N2CC(NS(=O)(=O)c3cccs3)CC2=O)c1 (stereo not given) | 0.2 | 0.6 | 1% | 4.5 | -1 | 0.9 | 0.63
COc1ccc(Cl)c2sc(N3CCN(C(C)=O)CC3)nc12 | 0.8 | -1.6 | -4% | -0.5 | 11 | 7.9 | 0.67
O=C(c1cc(COc2c(F)cccc2F)on1)N(Cc1ccccc1)CC1CC1 | 0.6 | -39 | · | -2.9 | -4 | 1.8 | 0.68
CCOc1ccc(C2C(C#N)=C(N)Oc3nc[nH]c(=O)c32)cc1OC (stereo not given) | -0.3 | 1.4 | 0% | 1.2 | 0 | 0.5 | 0.68
Cc1ccc(CNC(=O)CSc2nc3ccsc3c(=O)n2Cc2ccccn2)cc1 | 0.3 | -3.2 | 1% | 1.2 | -2 | 0.0 | 0.69
COC(=O)c1cc(S(=O)(=O)NCCc2cccc(C)c2)cn1C | 0.1 | 4.5 | · | 2.3 | 16 | 0.8 | 0.59
CN(C)c1cccc(C(=O)NNC(=O)CN2C(=O)C3CC=CCC3C2=O)c1 (stereo not given) | -0.7 | 1.7 | 10% | 0.3 | -6 | -11 | 0.65
O=C(/C=C/Nc1ccc(Oc2ccccc2Cl)cc1)c1ccco1 | -3.0 | 1.0 | 7% | -2.3 | 0 | -12 | 0.68
CCOc1cc(/C=N\NC(=O)C2C(=O)NCC2c2ccccc2)ccc1OC (stereo not given) | 0.2 | -0.1 | · | 3.0 | 1 | · | ·
CCOc1ccc(-c2cnc(N)n2C)cc1 | -0.2 | -0.1 | -1% | 0.0 | 0 | -1.4 | 0.69
Cc1ccc(C(=O)NCCCNC(=O)c2ccc(Cl)cc2)cn1 | 0.4 | -2.2 | · | -2.3 | 7 | 6.2 | 0.63
Cc1cccc(OCC(=O)NCC2CCCO2)c1C (stereo not given) | 0.2 | 1.5 | · | -4.7 | 4 | 0.9 | 0.73
O=[N+]([O-])c1ccccc1NCc1c(O)ccc2ccccc12 | 0.2 | -0.4 | -3% | 0.4 | 0 | · | ·
NC(=O)[C@@H]1CCCN1C(=O)c1ccc2nc(Cc3ccccc3F)oc2c1 | -0.4 | 0.1 | -5% | 1.1 | -15 | 3.4 | 0.7
CCC(C(=O)Nc1ccc(C(C)C)cc1)c1ccccc1 (stereo not given) | -0.2 | 1.1 | 4% | 1.8 | -5 | -0.4 | 0.68
COc1ccc(Cl)cc1S(=O)(=O)N1CCN(Cc2ccc3c(c2)OCO3)CC1 | 0.1 | -2.6 | 1% | -0.1 | -9 | -0.5 | 0.74
COc1ccc(Nc2cccc3ccccc23)cc1 | -1.9 | -20 | · | 8.8 | 5 | -26 | 0.7
Cc1ccc(N=C2C(=O)Nc3ccccc32)cc1C | 0.1 | 1.9 | · | 0.9 | 6 | 1.9 | 0.64
CCCc1nn(C)c2c(=O)[nH]c(-c3cc(S(N)(=O)=O)ccc3OCC)nc12 | -0.2 | -0.9 | 2% | -1.8 | -2 | -7.6 | 0.69
Cc1csc(=O)n1CCC(=O)OCC(=O)NNC(=O)c1ccc(Br)cc1 | 0.2 | 2.6 | ? | -0.8 | 9 | -0.1 | 0.6
COc1ccc(C(=O)O/N=C/c2c(C(F)(F)F)nn(C)c2SCc2ccccc2Cl)cc1 | -1.2 | 2.1 | 26% | 5.1 | 4 | · | ·
O=C(c1cc2ccccc2oc1=O)N1CCN(CCc2ccccc2)CC1 | 0.1 | -4.3 | 32% | 13 | 12 | -1.6 | 0.75
COc1cccc(N2CCN(C(=O)c3ccc4nc(N5CCCCC5)sc4c3)CC2)c1 | -1.3 | 3.4 | 2%&-5% | 2.6 | -1 | -1.3 | 0.75
CCN1CCc2c(sc(NC(=O)c3ccc(S(=O)(=O)N4CCCC4)cc3)c2C(=O)NC)C1 | 0.0 | 5.9 | 0% | -1.1 | 20 | 4.5 | 0.72
CC1CC(C)CN(CCC(=O)Nc2ccc(Br)cc2)C1 (stereo not given) | 0.1 | 1.6 | · | 3.6 | -1 | 2.1 | 0.61
O=C(NC(=S)Nc1ccc(Cl)c(C(=O)O)c1)c1ccc(OCc2ccccc2)cc1 | -1.6 | -3.0 | · | 4.7 | 9 | 6.5 | 0.7
COc1ccc(CNCC(=O)Nc2ccccc2-n2cccc2)cc1 | -0.4 | -0.3 | 1% | -15 | -4 | 2.9 | 0.69
CCOC(=O)c1ccc(S(=O)(=O)N2CCN(C(=O)C3CSC4(C)CCC(=O)N34)CC2)cc1 (stereo not given) | 0.3 | -0.7 | 5% | -0.7 | 2 | 1.1 | 0.69
CC(C)[C@H](NC(=O)c1ccccc1)C(=O)OCC(=O)N1CC(=O)Nc2ccccc21 | 0.0 | -3.4 | 1% | 2.0 | 0 | 0.8 | 0.69
(cont.)
SMILES | Bfl-1 A1 inh | HNF4A DNA FP | Vif A3G | LANA-H2B inh | B2AR ag | UCH37 inh | E coli growth
CC(C)(C)c1ccc(-c2nc(C#N)c(NCCCn3ccnc3)o2)cc1 | 0.1 | 5.7 | · | -4.9 | 2 | -43 | 0.64
CC(=O)Nc1c(-c2ccccc2)nc2ncccn12 | 1.0 | 1.8 | 0% | 4.4 | -1 | -363 | 0.69
COc1cccc(NC(=O)CCCNC(=O)Cn2cnc3sc(C)c(C)c3c2=O)c1 | 0.1 | -2.3 | -4% | 2.0 | -2 | 1.8 | 0.67
O=C(Nc1ccccc1)c1ccc2c(c1)OCCO2 | -6.0 | 3.8 | 28% | 1.4 | -8 | 2.8 | 0.64
CN(c1ccccc1)c1nc(-n2ccnc2)nc(-n2ccnc2)n1 | 0.0 | 2.8 | -4% | -3.7 | 2 | 1.5 | 0.68
CC(C)CCNC(=O)Cn1c(NCCC(C)C)nc2c1c(=O)n(C)c(=O)n2C | 1.1 | · | · | 2.5 | · | 4.3 | 0.77
CCOC(=O)N1CCN(S(=O)(=O)c2ccc(C(=O)N(CCCN(C)C)c3nc4cc(OC)ccc4s3)cc2)CC1 | -0.1 | -0.7 | 1% | -1.9 | -1 | 3.2 | 0.68
CN(C)c1cccc(C(=O)N/N=C/c2ccsc2)c1 | -0.4 | 1.1 | -4% | -5.6 | -14 | · | ·
CC1(C)CC(c2nc(-c3ccc(Br)cc3)cs2)CCS1 (stereo not given) | -0.8 | 3.7 | -3% | 3.6 | -4 | -0.3 | 0.67
CN(C(=O)c1cccc(NC(=O)Cc2cccc(NC(=O)C3CCN(C(=O)C4CCCC4)CC3)c2)c1)C1CCC1 | · | -1.6 | · | · | -15 | -1.2 | 0.67

3 compounds already listed, arranged by the value under Bfl-1 A1 inh, descending.
Structure	Bfl-1 A1 inh
CCOC(=O)c1ccc(S(=O)(=O)N2CCN(C(=O)C3CSC4(C)CCC(=O)N34)CC2)cc1 (stereo not given)	0.3
O=C(COC(=O)[C@@H]1CC(O)CN1S(=O)(=O)c1ccc2c(c1)OCCO2)Nc1ccccc1F (stereo not given in full)	-0.5
COc1ccc(Nc2cccc3ccccc23)cc1	-1.9

Next part
SMILES | Bfl-1 A1 inh | HNF4A DNA FP | Vif A3G | LANA-H2B inh | B2AR ag | UCH37 inh | E coli growth
C#CCn1c(=NC(=O)CN2C(=O)CCC2=O)sc2cccc(OC)c21 | 1.0 | 2.4 | 3% | -1.7 | 10 | -5.8 | 0.68
Cc1cc(=O)[nH]c(SCC(=O)N2CCCCCC2)n1 | 0.3 | 1.9 | 0% | 7.9 | -1 | 0.0 | 0.73
Cc1onc(-c2c(Cl)cccc2Cl)c1/C(N)=N/OC(=O)C(C)(C)C | 0.7 | -0.8 | -10% | -2.3 | 4 | 2.1 | 0.67
O=C(c1c(F)cccc1Cl)N1CCN(S(=O)(=O)c2ccc3c(c2)OCCCO3)CC1 | -1.2 | 3.9 | 7% | -3.4 | 9 | -1.8 | 0.68
CCOc1ccc(C(=O)/C=C/c2ccc(OC)c(OC)c2)cc1 | 0.4 | -3.0 | 3% | -3.1 | 3 | 2.8 | 0.68
